Compound activity (PubChem)
DUX4 inh – blocks DUX4-driven transcriptional activation; 293T-iDUX4 ZSCAN4-Gaussia luciferase reporter, 24 h; hits give low values; activity change, negative = inhibition, % (test concentration not listed); 37,000 compounds, 0.8% hits;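 active means -10% or lower and over 25 points stronger than a control reporter; inconclusive means -10% or lower with a smaller gap; inactive means above -10%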;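 further: 0% = median of neutral control wells and -100% = median of positive control wells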
DUX4 inh difference – also measured in DUX4 inh; calls as there; Gaussia minus Italica difference, %; measured here: selective DUX4 reporter inhibition;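 worked out from the two reporters; negative = selective loss of the DUX4 reporter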
DUX4 inh control – recorded beside DUX4 inh, whose call it bears; activity change, negative = inhibition, %; measured here: Italica tet-on control reporter;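 0 = neutral control and -100 = positive control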
Starred values were filed as active, the others as inactive; ? = inconclusive; / = not tested or not shown.

SMILES	DUX4 inh	DUX4 inh difference	DUX4 inh control
COc1ccc2c3c([nH]c2c1)[C@H](CO)N(C(=O)CN(C)C)CC31CN(C(=O)c2ccncc2)C1	17	11	6.4
Cc1cccc(S(=O)(=O)N(C)C[C@H]2OCc3ccccc3-c3c(n(C)c4ccccc34)C(=O)N([C@H](C)CO)C[C@H]2C)c1	-29*	-32*	3.0*
CS(=O)(=O)N1[C@H](C#N)[C@@H](c2ccc(C#CC3CC3)cc2)[C@@H]1CO	-2	-4	2.5
CN1CCN(C(=O)C[C@@H]2CC[C@@H]3[C@@H](COc4ccc(NC(=O)C5CCOCC5)cc4C(=O)N3C)O2)CC1	0	-1	1.3
COCCNC(=O)C[C@@H]1CC[C@H]2[C@H](COc3ccc(NC(=O)C4CCOCC4)cc3C(=O)N2C)O1	-1	-3	2.0
CN(C)C(=O)[C@@H]1[C@@H](CO)[C@@H]2Cn3c(ccc(C4=CCCC4)c3=O)[C@H]1N2C(=O)Nc1ccccc1	-8	-3	-4.3
COc1ccc2c3c(n(C)c2c1)[C@H](CO)N(CC1CC1)CC31CN(C(=O)c2ccc(F)cc2)C1	-37*	-28*	-8.7*
C[C@@H]1CCCCO[C@H](CN(C)C(=O)C2CCCCC2)[C@@H](C)CN([C@H](C)CO)C(=O)c2cc(N(C)C)ccc2O1	0	1	-1.1
CCCN1[C@@H]2c3ccc(-c4ccc(OC)cc4)c(=O)n3C[C@@H]2[C@@H](CO)[C@@H]1C(=O)N(C)C	3	-3	6.0
CO[C@H](CN(C)C(=O)Nc1ccc(Cl)cc1)[C@@H](C)CN(Cc1ccccc1Cl)[C@@H](C)CO	1	1	-0.4
CO[C@H]1CN(C)C(=O)c2cccc(C#N)c2OC[C@@H]2O[C@H](CC[C@H]2OC)CCN(C)C(=O)[C@H]1C	-1	-2	0.2
CN1C(=O)c2cc(NC(=O)c3ccc(F)c(F)c3)ccc2OC[C@@H]2O[C@H](CC(=O)N[C@H]3CCN(Cc4ccccc4)C3)CC[C@@H]21	-7	-6	-1.6
O=C(C[C@@H]1CC[C@H]2[C@@H](COC[C@H](O)CN2S(=O)(=O)c2cccc(F)c2)O1)Nc1ccccc1	-6	-7	1.5
CCCNC(=O)N1C[C@H](O)COC[C@@H]2O[C@H](CC(=O)NCCCN3CCOCC3)CC[C@H]21	3	-1	3.7
CCC(=O)NC[C@@H]1[C@H](c2ccc(-c3ccccc3)cc2)[C@@H](CO)N1C(=O)C1CC1	3	-2	5.1
CNC[C@@H]1Oc2ncc(C#CC3(O)CCCC3)cc2C(=O)N([C@@H](C)CO)C[C@H]1C	-1	-5	3.8
COCC(=O)N1[C@@H]2CN(C(=O)Nc3ccccc3F)c3ccccc3[C@@H]2[C@@H]1CO	1	1	-0.6
C[C@H]1CN([C@@H](C)CO)C(=O)c2cc(Br)cnc2O[C@H]1CN(C)C(=O)C1CCCCC1	-2	-2	0.3
O=C(c1ccccc1F)N1C[C@@H]2[C@H](c3ccccc31)[C@@H](CO)N2C(=O)Nc1ccccc1	5	1	4.4
N#C[C@@H]1[C@@H](c2ccc(C3=CCCC3)cc2)[C@@H](CO)N1C(=O)C1CCCC1	0	-2	2.7
O=C1NCCOCc2cn(nn2)CCC[C@@H]1Cc1ccccc1	-3	0	-2.8
O=C(Nc1ccc(F)cc1)N1CC(=O)N2[C@H](CO)[C@@H](c3ccc(-c4cccc(F)c4)cc3)[C@@H]2C1	-6	-2	-4.3
Cc1ccccc1S(=O)(=O)N1C[C@H](O)COC[C@@H]2O[C@@H](CC(=O)NCCc3ccccc3)CC[C@H]21	0	0	0.4
O=C1N[C@H](Cc2ccccc2)COCn2nncc2CC[C@H]1Cc1ccccc1	5	-2	6.6
Cc1noc(C)c1NC(=O)N(C)C[C@@H]1Oc2ccc(NC(=O)CCCN(C)C)cc2C(=O)N([C@H](C)CO)C[C@H]1C	2	-1	3.1

Shown field by field: four of the compounds above
molecule: CO[C@H](CN(C)C(=O)Nc1ccc(Cl)cc1)[C@@H](C)CN(Cc1ccccc1Cl)[C@@H](C)CO
  DUX4 inh = 1; DUX4 inh difference = 1; DUX4 inh control = -0.4

molecule: CO[C@H]1CN(C)C(=O)c2cccc(C#N)c2OC[C@@H]2O[C@H](CC[C@H]2OC)CCN(C)C(=O)[C@H]1C
  DUX4 inh = -1; DUX4 inh difference = -2; DUX4 inh control = 0.2

molecule: CN1C(=O)c2cc(NC(=O)c3ccc(F)c(F)c3)ccc2OC[C@@H]2O[C@H](CC(=O)N[C@H]3CCN(Cc4ccccc4)C3)CC[C@@H]21
  DUX4 inh = -7; DUX4 inh difference = -6; DUX4 inh control = -1.6

molecule: O=C(C[C@@H]1CC[C@H]2[C@@H](COC[C@H](O)CN2S(=O)(=O)c2cccc(F)c2)O1)Nc1ccccc1
  DUX4 inh = -6; DUX4 inh difference = -7; DUX4 inh control = 1.5

Continued.
SMILES	DUX4 inh	DUX4 inh difference	DUX4 inh control
CC(C)NC(=O)N1[C@H](C#N)[C@@H](c2ccc(C#CC3CCCC3)cc2)[C@H]1CO	-4	2	-5.9
CO[C@H]1CN(C)C(=O)c2ccc(NC(=O)Nc3ccccc3F)cc2OC[C@H](C)N(CC2CC2)C[C@H]1C	-7	-8	1.0
COc1ccc(NC(=O)N(C)C[C@H]2Oc3ncc(C#C[C@@H](C)O)cc3C(=O)N([C@H](C)CO)C[C@H]2C)cc1	-1	-1	0.0
CCCNC(=O)[C@@H]1[C@@H](CO)[C@@H]2Cn3c(ccc(-c4ccc(OC)cc4)c3=O)[C@@H]2N1CC	-5	2	-6.8
O=C(N[C@H]1CC[C@H](CCNS(=O)(=O)c2ccc(F)cc2)O[C@H]1CO)C1CCC1	-1	-3	2.2
C/C=C/c1cccc(-c2nc(C(=O)NC3Cc4ccccc4C3)cc3c2[C@H](CCO)N(C(C)=O)C3)c1	-3	-5	1.8
C[C@@H]1CN([C@@H](C)CO)C(=O)c2c(c3ccccc3n2C)-c2ccccc2CO[C@H]1CN(C)S(=O)(=O)Cc1ccccc1	?	/	/
C[C@@H]1CN([C@@H](C)CO)C(=O)c2cc(N(C)C)ccc2O[C@@H](C)CCCCO[C@@H]1CN(C)C(=O)Nc1cccc2ccccc12	5	1	4.2
CC(C)C#Cc1ccc([C@@H]2[C@@H](C#N)N(C(=O)CN(C)C)[C@H]2CO)cc1	0	-1	0.8
C[C@@H](O)C#Cc1ccc2c(c1)O[C@H](CN(C)Cc1ccc(-c3ccccc3)cc1)[C@@H](C)CN([C@@H](C)CO)S2(=O)=O	-4	-8	4.2
O=C(C[C@@H]1CC[C@@H]2[C@H](COC[C@H](O)CN2C(=O)c2cccnc2)O1)Nc1ccc(-c2ccccc2)cc1	13	8	5.1
C[C@@H]1CCCCO[C@H](CN(C)C(=O)Cc2ccccc2)[C@@H](C)CN([C@@H](C)CO)C(=O)c2cc(NC(=O)Nc3ccc(C(F)(F)F)cc3)ccc2O1	4	6	-1.5
CN1C(=O)c2cc(NC(=O)Nc3ccccc3Cl)ccc2OC[C@@H]2O[C@@H](CC(=O)NCCCN3CCOCC3)CC[C@@H]21	-2	3	-4.3
CCC(=O)N1[C@@H]2c3cccc(=O)n3C[C@@H]2[C@@H](CO)[C@@H]1C(=O)NC1CCCC1	-7	-14	7.1
COC(=O)C[C@H]1CC[C@H]2[C@@H](COC[C@@H](O)CN2S(=O)(=O)c2ccccc2C)O1	-5	-2	-3.2
CC(C)C#Cc1ccc2c(c1)O[C@H](CN(C)C(=O)Nc1ccccc1)[C@@H](C)CN([C@@H](C)CO)S2(=O)=O	2	0	1.3
CN(C)C(=O)c1cccc(-c2ccccc2[C@H]2[C@@H](C#N)N(C(=O)C3CC3)[C@@H]2CO)c1	6	-3	8.9
CCCNC(=O)N1CC2(CN(C(C)=O)C2)c2c(n(C)c3cc(OC)ccc23)[C@@H]1CO	13	3	10
O=C(Nc1ccccc1F)N1C[C@H]2[C@@H](c3ccccc31)[C@H](CO)N2C(=O)Cc1ccccc1	0	2	-2.2
C[C@@H]1CN([C@@H](C)CO)C(=O)c2cc(NS(=O)(=O)c3cccs3)ccc2O[C@@H]1CN(C)S(=O)(=O)c1ccc(Cl)cc1	10	9	0.6
COc1ccc2c3c(n(C)c2c1)[C@H](CO)N(C(=O)C1CCC1)CC31CCN(CC2CCCC2)CC1	12	-1	12
C[C@H](NC(=O)C[C@H]1CC[C@@H]2[C@H](COC[C@@H](O)CN2C(=O)Nc2cccc(Cl)c2)O1)c1ccccc1	1	-5	6.8
N#C[C@@H]1[C@H](c2ccc(-c3ccccc3F)cc2)[C@H](CO)N1C(=O)C1CCC1	6	4	1.8
CCCNC(=O)[C@@H]1[C@@H](CO)[C@@H]2Cn3c(ccc(C4=CCCC4)c3=O)[C@@H]2N1Cc1ccccc1	-4	9	-13
O=C(C[C@@H]1CC[C@H]2[C@@H](COC[C@@H](O)CN2S(=O)(=O)c2ccccc2)O1)N1CCOCC1	7	0	7.3

Other compounds:
SMILES	DUX4 inh	DUX4 inh difference	DUX4 inh control
CCCN1[C@@H]2c3ccc(C4=CCCCC4)c(=O)n3C[C@@H]2[C@@H](CO)[C@@H]1C(=O)OC	-2	-4	2.2
COc1cccc(S(=O)(=O)Nc2ccc3c(c2)[C@H]2C[C@@H](CC(=O)N[C@@H](C)c4ccccc4)O[C@H](CO)[C@H]2O3)c1	?	/	/
O=C(NCc1ccccc1)[C@@H]1[C@@H](CO)[C@@H]2Cn3c(cccc3=O)[C@H]1N2CC1CCCC1	0	-1	1.0
CS(=O)(=O)N1[C@H](C(=O)NCC2CC2)[C@@H](CO)[C@@H]2Cn3c(ccc(-c4ccccc4F)c3=O)[C@@H]21	-1	2	-2.5
CC=Cc1ccc2n(c1=O)C[C@H]1[C@H](CO)[C@@H](C(=O)N(C)C)[C@@H]2N1C(=O)c1ccc(F)cc1 (mixture of isomers)	0	3	-2.9
O=C(NCC1CC1)[C@@H]1[C@@H](CO)[C@@H]2Cn3c(ccc(-c4cccnc4)c3=O)[C@H]1N2C(=O)C1CC1	?	/	/
CO[C@H]1CN(C)C(=O)c2ccc(NC(=O)C3CCC3)cc2OC[C@@H](C)N(Cc2ccncc2)C[C@@H]1C	-3	-3	-0.2
CCCN(C)C[C@H]1Oc2ncc(C#CCN(C)C)cc2C(=O)N([C@@H](C)CO)C[C@@H]1C	-2	0	-2.5
Cc1noc(C)c1NC(=O)N(C)C[C@@H]1Oc2c(NC(=O)c3cnccn3)cccc2C(=O)N([C@@H](C)CO)C[C@@H]1C	5	3	1.4
COc1cc(CN2CC3(CN(C(=O)NC(C)C)C3)c3c(n(C)c4cc(OC)ccc34)[C@H]2CO)cc(OC)c1	12	8	3.3
COc1ccc(S(=O)(=O)N2C[C@@H](O)COC[C@@H]3O[C@@H](CC(=O)N[C@@H]4CCN(Cc5ccccc5)C4)CC[C@H]32)cc1	?	/	/
C[C@@H]1CN([C@@H](C)CO)C(=O)c2c(c3ccccc3n2C)-c2ccccc2CO[C@H]1CN(C)S(=O)(=O)c1cccc(C#N)c1	?	/	/
CN1CCN(C(=O)C[C@@H]2CC[C@@H]3[C@H](COC[C@@H](O)CN3C(=O)C3CCCC3)O2)CC1	7	6	1.3
COc1ccccc1CNC(=O)C[C@@H]1CC[C@@H]2[C@H](COC[C@H](O)CN2Cc2ccccc2)O1	10	7	2.8
C[C@H]1CN([C@@H](C)CO)C(=O)c2cc(NS(C)(=O)=O)ccc2O[C@H]1CN(C)C	-5	-2	-3.3
C[C@H]1CN([C@@H](C)CO)C(=O)c2c(c3ccccc3n2C)-c2ccccc2CO[C@H]1CN(C)CC1CCCCC1	?	/	/
C/C=C/c1ccc([C@@H]2[C@H](CO)N(C(=O)C3CCCC3)C23CN(C(=O)NC(C)C)C3)cc1	0	-1	0.2
C[C@H](CO)N1C[C@H](C)[C@@H](CN(C)Cc2cccnc2)OCc2ccccc2-c2ccccc2C1=O	3	7	-3.4
CN1C(=O)c2cc(NC(=O)Cc3cccs3)ccc2OC[C@@H]2O[C@H](CC(=O)NCC3CCCCC3)CC[C@H]21	0	-1	0.8
O=C(c1cnccn1)N1CC(=O)N2[C@@H](CO)[C@H](c3ccc(C#CCC4CCCC4)cc3)[C@@H]2C1	-4	-8	3.7
COCC(=O)N1C[C@@H](C)[C@H](OC)CN(C)C(=O)c2cc(NC(=O)Nc3ccccc3)ccc2OC[C@@H]1C	-1	3	-4.1
CCCNC(=O)Nc1ccc2c(c1)C(=O)N(C)[C@@H]1CC[C@H](CC(=O)NCCCN(C)C)O[C@@H]1CO2	-2	-2	0.7
N#C[C@H]1[C@H](c2ccccc2)[C@@H](CO)N1S(=O)(=O)c1cccc(F)c1	0	4	-4.1
CCC(=O)N1CCCCN2[C@H](CO)[C@H](c3ccc(-c4ccc(F)cc4)cc3)[C@@H]2C1	?	/	/
CCCNC(=O)N1CC2(CCN(C(=O)CCC)CC2)c2c(n(C)c3cc(OC)ccc23)[C@@H]1CO	5	10	-5.4
COCC(=O)N1CC2(CN(S(C)(=O)=O)C2)c2c(n(C)c3cc(OC)ccc23)[C@@H]1CO	12	1	11
COc1ccc2c3c(n(C)c2c1)[C@H](CO)N(C(=O)NC(C)C)CC31CN(C(C)=O)C1	16	-14	30
CC(=O)N1[C@H](CO)[C@@H](c2ccc(-c3ccc(C#N)cc3)cc2)C12CN(C(=O)C1CC1)C2	-1	-12	11

By substructure: the entries above with a thiophene ring, fused or not.
SMILES	DUX4 inh	DUX4 inh difference	DUX4 inh control
C[C@@H]1CN([C@@H](C)CO)C(=O)c2cc(NS(=O)(=O)c3cccs3)ccc2O[C@@H]1CN(C)S(=O)(=O)c1ccc(Cl)cc1	10	9	0.6
CN1C(=O)c2cc(NC(=O)Cc3cccs3)ccc2OC[C@@H]2O[C@H](CC(=O)NCC3CCCCC3)CC[C@H]21	0	-1	0.8

Not all compounds are listed; rates above refer to the full screens.
